# Screens: PubChem, National Center for Advancing Translational Sciences (NCATS)
# gsp agonist = agonists of gsp mutant (McCune-Albright syndrome); hit rate 0.13% among 340,000; AID 624287; Potency, µM (series often up to 76.9 µM), for inactives: at the highest dose activation (cAMP increase), usual class: activators; gsp mutant cells, cAMP HTRF, 30 min; control for the full effect not named in the record; active = well fitted activation curve with a large enough effect; inconclusive = small, poorly fitted or top-dose-only effect, or another doubt; inactive = no such curve, though single readings can be large or run the other way; cell line not stated here;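 also: phosphodiesterase inhibitor Ro 20-1724 added with compounds to block cAMP breakdown; potency is read from the fitted curve at half-maximal effect; nearly all actives have a fitted effect of over 60% in size; about a fifth of the inactives were tested at one dose only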
#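 Cells stably selected in G418 were plated at 2000/well, grown 16-24 hr, then given compounds in DMSO with the PDE inhibitor […] (300 uM solution added) for 30 min at 37C; cAMP was read by HTRF.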
# Menin MLL FP FL = menin-MLL binding inhibition, fluorescein peptide; 290,000 tested, under 10 active; FP activity change, % at 61.4 µM; Fluorescence polarization, fluorescein-MLL peptide displacement from menin; AID 1766; inconclusive = falling polarisation curve, or a change in total fluorescence; inactive = total fluorescence flat and polarisation flat or rising; no compound was filed as active; the % refers to the polarisation; negative = inhibition;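 also: % of control where 0% means no effect; inhibitors lower the polarisation; unlabelled MLL peptide was the positive control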
# Sfp PPTase inh = inhibitors of Bacillus subtilis Sfp phosphopantetheinyl transferase; hit rate 3.5% among 310,000; Potency, µM, without a hit: max response, negative = inhibition, most hits filed as inhibitors; AID 1490; Biochemical Sfp PPTase activity, qHTS; active = well fitted inhibition curve with a large enough effect; inconclusive = small, poorly fitted or top-dose-only effect, or another doubt; inactive = no such curve, though single readings can be large or run the other way;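 also: the enzyme is Sfp with the accession as filed and its product quenches rhodamine fluorescence; potency is read from the fitted curve at half-maximal effect; 0% = enzyme reaction without inhibitor and -100% = no enzyme wells; top concentration of the series not given in the record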
#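 With Hepes-Na pH 7.6 buffer containing 10 mM MgCl2, Sfp (15 nM) modified BHQ-2-YbbR (12.5 uM) using rhodamine-CoA (5 uM). Two reads 30 minutes apart at 525/598 nm yielded each well's rate.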
# gsp antagonist = antagonizes gsp, the McCune-Albright syndrome mutation. gsp-mutant cells, cAMP HTRF, 30 min; control for the full effect not named in the record. Potency, µM (highest dose often 76.9 µM), for inactives: top-dose activity change, negative = inhibition, usual class: inhibitors. hit rate 0.4% among 340,000; active = falling curve of any shape with a large fitted effect; inconclusive = falling curve, mostly with a smaller effect; inactive = flat or rising curve; cell line not stated here;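 also: intracellular cAMP measured with PDE inhibitor Ro 20-1724 present during compound exposure; potency is read from the fitted curve at half-maximal effect; % is scaled to controls: 0 for no effect and ±100 for the full control effect; nearly all actives have a fitted effect of over 65% in size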
#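 HTRF cAMP measurement after 30 min RT detection following 30 min, 37C compound treatment alongside […] (added as 300 uM solution) in G418-selected cells seeded at 2000/well and grown 16–24 h.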
# ClpP mod = qHTS Assay for Activators of ClpP | AID 651965, 2013 | hit rate 1.9% among 340,000 | purified B. subtilis ClpP, FRET peptide cleavage, 20 min | Potency, µM (series often up to 57.5 µM), for the others: top-dose activity change, negative = active; active = well fitted falling curve with a large enough effect; inconclusive = small, poorly fitted or top-dose-only effect; inactive = no such curve, though single readings can be large or run the other way; also: potency is read from the fitted curve at half-maximal effect; the source files actives as falling curves though it sought activators and does not explain the sign; nearly all actives have a fitted effect of over 65% in size; many hits overshoot -100%
# Target sequence (P80244 whole entry, looked up): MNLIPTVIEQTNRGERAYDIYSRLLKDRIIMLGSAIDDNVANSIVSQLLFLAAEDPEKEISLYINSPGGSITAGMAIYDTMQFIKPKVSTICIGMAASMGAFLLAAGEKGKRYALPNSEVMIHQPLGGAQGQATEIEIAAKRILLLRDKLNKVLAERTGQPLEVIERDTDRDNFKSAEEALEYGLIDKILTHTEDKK
#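 Purified B. subtilis ClpP, 10 microg/mL final in Tris/HCl pH8 with KCl, BSA, glycerol and Tween-20, cleaved an Abz/nitrotyrosine-quenched decapeptide. Fluorescence (ex 320, em 430) was read at 0 and 20 min at room temperature. Delta was normalized to 5.8 microM ADEP and DMSO/no-enzyme controls.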
# TRPV1 potentiator = potentiators of human vanilloid receptor 1 (TRPV1); hit rate 0.02% among 320,000; potentiation, % at 8.33 µM; Q8NER1; AID 540277; TRPV1-expressing cells, Fluo-8 calcium influx, capsaicin EC20 potentiation; host cell line not named in the record; control for the full effect not named in the record; active means potentiation above 80%; inconclusive means 30% to 80%; inactive means below 30%; also: 0% is about no effect
# Target sequence (Q8NER1 whole entry, looked up): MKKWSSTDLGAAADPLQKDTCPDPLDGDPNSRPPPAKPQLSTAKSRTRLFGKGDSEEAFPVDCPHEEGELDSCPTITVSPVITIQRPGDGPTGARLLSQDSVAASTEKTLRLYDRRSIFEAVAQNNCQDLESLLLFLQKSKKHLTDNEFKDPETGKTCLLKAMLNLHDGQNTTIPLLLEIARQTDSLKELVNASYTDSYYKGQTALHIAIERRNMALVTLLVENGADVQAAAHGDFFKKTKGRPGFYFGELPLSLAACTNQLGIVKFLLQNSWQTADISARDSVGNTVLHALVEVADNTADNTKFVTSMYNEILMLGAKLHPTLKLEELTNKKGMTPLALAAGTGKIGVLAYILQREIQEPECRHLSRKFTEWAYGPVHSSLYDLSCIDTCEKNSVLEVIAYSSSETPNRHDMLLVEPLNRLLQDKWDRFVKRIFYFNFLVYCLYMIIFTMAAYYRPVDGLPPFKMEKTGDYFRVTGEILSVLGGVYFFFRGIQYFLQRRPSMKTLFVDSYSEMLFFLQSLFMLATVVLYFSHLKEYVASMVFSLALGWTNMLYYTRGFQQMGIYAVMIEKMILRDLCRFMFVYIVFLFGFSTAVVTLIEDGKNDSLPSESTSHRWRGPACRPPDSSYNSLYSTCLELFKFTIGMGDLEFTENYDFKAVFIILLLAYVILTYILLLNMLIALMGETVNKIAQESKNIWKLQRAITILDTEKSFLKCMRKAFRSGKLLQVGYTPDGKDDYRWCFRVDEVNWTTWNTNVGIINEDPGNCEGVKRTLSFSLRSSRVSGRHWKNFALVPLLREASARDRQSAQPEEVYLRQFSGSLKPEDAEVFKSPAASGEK
#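 TRPV1-expressing cells were cultured overnight at 35.5C and loaded with Fluo-8 calcium dye for 40 to 90 min at room temperature. After a 10 s baseline, compound was added and calcium influx was read kinetically for 3 min (ex 480/em 520 nm).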
# CtBP-E1A inh = inhibitors of CtBP/E1A interaction; activity change, % (concentration not given with the values); AlphaScreen GST-E1A/His-CtBP binding, 1536-well; active compounds read low; control for the full effect not named in the record; hit rate 0.49% among 340,000; in the data active means activity change below about -65%; inconclusive means about -30% to -65%; inactive means above about -30%; also: % is scaled to controls: 0 for no effect and ±100 for the full control effect
#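 GST-E1A and His-tagged CtBP (125 nM each as 5X stock) were preincubated with pin-transferred compound for 2 h at 37 °C in the dark, then glutathione donor and nickel acceptor beads were added for 1 h before AlphaScreen reading.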
# An asterisk follows results filed as active; ? = inconclusive; · = no result given; & = joins results of further samples; [ ] = remark or other dose. Not a hit list, and some 5.3% of all compounds hit somewhere here.
SMILES,gsp agonist,Menin MLL FP FL,Sfp PPTase inh,gsp antagonist,ClpP mod,TRPV1 potentiator,CtBP-E1A inh
CC1CCc2nn(CC(=O)NC3CCCC(C)C3C)cc2C1 (stereo not given),?,1.7,12%,3%,-0.2%,-13,-2
NC(=O)c1cc[n+](CC(=O)c2ccc(NC(=O)c3ccccc3)cc2)cc1,4%,1.1,4%,7%,-0.3%,3,·
COc1ccc2cc3cc(C(=O)N4CCN(C5CCCCC5)CC4)oc3nc2c1,?,·,7%,7%,3.9%,12,0
Cc1cccc(C)c1NC(=O)COC(=O)c1c(C)nn(-c2ccccc2)c1C,33%,·,·,-14%,-1.3%,7,8
O=C(N/N=C/c1cc([N+](=O)[O-])ccc1O)Nc1ccccc1,-5%[15.4 µM],3.1,15%,-14%,·,-4,-3
COC(=O)c1sccc1NC(=O)Nc1ccc(C)cc1,18%,·,-5%,2%,-4.1%,-12,-16
Cc1nnc(NC(=O)c2ccccc2F)s1,5%,1.0,11%,5%,-1.1%,-20,2
COc1ccc(C(=O)NCCSc2ccc(C)cc2)cc1,18%,3.6,-2%,-2%,-7.7%,-9,3
O=C(NCC1CCCO1)c1ccc(CSCc2cccc(F)c2)o1 (stereo not given),15%[15.4 µM],-5.7,-1%,-2%,·,9,0
COc1cccc(Nc2cc(N3CCOCC3)c3nonc3c2[N+](=O)[O-])c1,-9%,1.0,8%,3%[15.4 µM],-0.5%,-5,0
O=C(CSc1nc2ccccc2c(=O)n1Cc1ccccc1)NCc1ccco1,0%,6.3,7%,22%,-4.6%,-17,4
Cc1nc(SCC(=O)c2cccc([N+](=O)[O-])c2)n[nH]1,?,0.7,20µM*,3%,-1.1%,-4,-1
O=C(NC1CCCCC1)N(Cc1ccc(F)cc1)Cc1nc2ccccc2c(=O)[nH]1,6%,0.2,13%,10%,-6.3%,2,-4
COc1ccc2cc(S(=O)(=O)N3CCN(C)CC3)ccc2c1,-33%,2.3,-4%,1%,?,4,-1
O=C(Nc1ccc(N2CCOCC2)c(S(=O)(=O)Nc2ccccc2Cl)c1)c1ccccc1,-27%,·,·,-12%,0.4%,-11,-3
COc1cccc(CN2CCNC(=O)C2CC(=O)NCCCn2ccnc2)c1 (stereo not given),15%[15.4 µM],-1.4,8%,3%,·,1,-4
CCOC(=O)c1c(C)n(C)c2ccc(OC)c(NC(=O)CN3CCC4(CC3)OCCO4)c12,-5%,3.9,?,3%,-2.0%,-23,4
CCn1nnnc1NCc1cccc(Cl)c1,3%[15.4 µM],-1.1,8%,-7%,-0.3%,23,7
C[C@@H]1CN([C@@H](C)CO)C(=O)c2cc(Br)cnc2O[C@H]1CN(C)C(=O)C1CCCCC1,?,·,·,·,1.8%,·,-6
CCOC(=O)N/N=C/c1cn(CCCOc2ccc(C)cc2)c2ccccc12,-6%,·,8%,-4%,-2.8%,-2,-4
O=C(N/N=C/c1ccc(F)cc1)c1cccc(NC(=O)c2ccc(F)cc2)c1,2%[15.4 µM],-7.7,8%,-4%,-1.1%,-1,-16
O=C(NCC1CCCO1)C1CCN(S(=O)(=O)Cc2ccccc2)CC1 (stereo not given),9%,2.1,17%,3%,-0.6%,5,0
COc1cccc(-c2nc(-c3ccccc3)no2)c1,1%,2.2,8%,0%,-4.7%,4,42
COc1cccc(/C=N/NC(=O)CCCc2ccc(OC)c(C)c2)c1,-2%,0.5,4%,-6%,0.9%,-27,2
O=C(c1cccc(C(=O)N2CCN(c3ccc(F)cc3)CC2)c1)N1CCN(c2ccc(F)cc2)CC1,-38%,2.8,-15%,?,0.9%,4,4
Cc1ccc(-n2c(CNc3ccc(C)c(Cl)c3)n[nH]c2=S)cc1,-1%,-3.7,6%,-13%,-0.6%,2,·
CN=C1S/C(=C/c2cn(CC(=O)OC)c3ccccc23)C(=O)N1C,-1%[15.4 µM],?,?,-25%,-1.5%,-19,-2
CCCCN(C)CCNC(=O)Cn1c(=O)sc2ccccc21,3%,4.9,11%,11%,2.1%,·,2
O=C(O)c1cc(N2CCCCC2)ccn1,-5%,·,·,9%,-17%,·,-20
Cc1ccccc1NC(=O)Nc1ccccc1N1CCCCC1,-4%,1.7,-6%,-14%,-0.4%,-28,·
CCOC(=O)Cc1nn(Cc2nc(-c3ccc(C)cc3)cs2)c(=O)c2ccccc12,-2%,4.3,6%,-26%,1.3%,·,·
Fc1cc(F)cc(NC(=S)NCCCN2CCOCC2)c1,-4%,-1.4,-17%,17%,1.0%,-7,4
Cc1cc(NC(=O)CSc2ccc3nnc(-c4ccc(F)cc4)n3n2)no1,8%,0.5,20%,?,?,·,2
Cc1cc(NS(=O)(=O)c2ccc(NC(=O)Cc3ccccc3)cc2)nc(C)n1,-4%,1.4,15%,-4%,·,14,-1
COc1ccc(C(=O)NCc2ccc(Cl)cc2)cc1S(=O)(=O)N1CCCC1,-3%,·,·,-23%,-6.8%,2,-5
O=C1NC2c3c(I)sc(I)c3C(=O)C2O1 (stereo not given),-16%,·,·,-19%,-2.0%,·,1
Cc1c(C(=O)O)sc2ncnc(N3CCCCC3C)c12 (stereo not given),?,3.1,1%,1%,-4.7%,-9,3
COc1ccc(NC(=O)C[C@H]2C(=O)N(c3ccccc3)C[C@@H]2Cc2ccccc2)cc1,-1%,·,·,·,1.7%,·,-2
COc1cccc(C(=O)Nc2ccc(-n3nncc3C(C)(C)C)cc2)c1,6%[15.4 µM],2.6,4%,-7%,·,-18,4
COc1ccc(CCNc2cn[nH]c(=O)c2Cl)cc1OC,-6%,-2.6,18%,5%,·,0,5
COc1cc(C(=O)OCC(=O)N(CC(C)C)C2CCS(=O)(=O)C2)ccc1OCC(C)C (stereo not given),-25%[15.4 µM],·,·,7%,·,-17,10
CC(=O)c1ccc(OCCCC(=O)Nc2cccc(S(=O)(=O)N3CCOCC3)c2)cc1,0%,·,·,-8%,·,·,-4
Cc1c(NC(=O)c2cc(-c3ccccc3O)on2)c(=O)n(-c2ccccc2)n1C,-3%,?,7%,-1%,-2.7%&-0.5%,-1,·
CCOC(=O)Cn1c2c(c(=N)c3c1CCC3)CCC2,-3%,0.0,4%,7%,2.7%,?,5
OCCCN1CNC(=S)NC1,20%,·,·,·,0.9%,·,8
COc1ccccc1Nc1nc(N)nc(CSCCO)n1,-1%,-1.0,0%,6%,-1.6%,-11,-1
COc1ccc(NC(=O)N2CCC(n3cnc4ccccc43)CC2)cc1,?,0.1,1%,3%,-0.9%,-17,-2
CCN(CC(=O)Nc1ccc(OC)cc1)C(=O)CSCC(=O)Nc1ccc(C)cc1,-23%,·,-1%,-1%,-0.9%,15,-13
O=C1CS/C(=N/N=C/c2ccco2)N1Cc1ccc(F)cc1,1%,4.4,-16%,-13%,-0.9%,4,·
O=C(Cc1cccs1)Nc1nnc(-c2ccc(F)cc2)s1,?,1.5,7%,-2%,-12%,4,·
CCC1CCC(N2CCN(c3ccccc3F)CC2)CC1 (stereo not given),-34%[inhibitor],0.1,5%,-7%,-0.4%,0,-2
CCN(CC)CCCNC(=O)CCC(=O)Nc1ccc2nc(N3CCCCC3)cc(C)c2c1,?,-1.4,2%,3%,4.1%,28,-3
CCS(=O)(=O)c1nc2ccccc2n1Cc1ccccc1Cl,-13%,-1.5,-7%,-22%,0.6%,11,-1
COC(=O)C1=C(C)N(C)C(=S)NC1c1cc(OC)ccc1OC (stereo not given),-26%,-4.3,1%,3%,·,0,0
O=C(CCCSc1nc2ccccc2[nH]1)NC1CCCCC1,?,-2.6,26%,-5%,-0.1%,2,·
COc1ccc(CCN(C)C(=O)CNC(=O)c2ccc3c(c2)OCO3)cc1OC,-99%[inhibitor],·,-7%,-14%,-11%,22,-6
O=C(CSc1nnc(CN2CCOCC2)n1-c1ccc(Cl)cc1)Nc1ccc2c(c1)OCO2,-5%,3.2,3%,-2%,0.6%,7,3
N=C1S/C(=C\c2ccccc2)C(=O)N1c1ccc(F)cc1,30%,5.6,-5%,-1%,2.3%,-8,·
Cn1c(=NC(=O)c2ccc3c(c2)OCCO3)sc2cc(S(C)(=O)=O)ccc21,6%[15.4 µM],1.5,14%,23%,13µM*,6,3
O=C(CSCc1ccc(F)cc1)NC1CCCC1,-15%,3.7,12%,0%,1.1%,5,9
# Next section.
SMILES,gsp agonist,Menin MLL FP FL,Sfp PPTase inh,gsp antagonist,ClpP mod,TRPV1 potentiator,CtBP-E1A inh
COc1cccc(C2=NOC(C(=O)Nc3cccc(C(C)=O)c3)C2)c1 (stereo not given),-7%,9.1,16%,-4%,-1.0%,-1,13
COc1cccc(N(C(=O)c2snc(C(N)=O)c2N)C(C(=O)NCC2CCCO2)c2ccc(F)cc2)c1 (stereo not given),-11%[15.4 µM],-4.8,0%,·,·,-13,-8
Cc1cc(C)cc(C(=O)NCC(=O)OCC(=O)NCc2ccco2)c1,-6%,-0.8,3%,-6%,0.7%,1,·
COc1ccccc1CN1CCCC(CN(CCN(C)C)C(=O)c2ccc(C)cc2)C1 (stereo not given),-3%,0.4,5%,6%,0.7%,-3,3
OC(COc1ccc(Cl)cc1)CN1CCN(c2ccccc2)CC1 (stereo not given),?,-5.7,-8%,10%,-3.8%,4,-26
Cc1ccc(-n2c(-c3ccccc3)c[nH]c2=S)cc1,-18%[15.4 µM],0.4,-22%,-1%,1.6%,7,-4
CCOC(=O)c1c(CC(C)C)csc1NC(=O)COC(=O)C1=NNC(=O)CC1,?,·,·,-7%,3.7%,30,3
COc1ccc(C2C3=C(CC(C)(C)CC3=O)Nc3nc(C)nn32)cc1OC (stereo not given),-2%,1.2,9%,5%,?,8,·
Cc1oc2ccc(Br)cc2c(=O)c1-c1nn[nH]n1,-3%[15.4 µM],0.3,-4%,-16%,·,-1,0

# Three compounds from above, sorted by their value in gsp agonist, descending.
structure,gsp agonist
COc1ccc(C2C3=C(CC(C)(C)CC3=O)Nc3nc(C)nn32)cc1OC (stereo not given),-2%
COc1ccccc1CN1CCCC(CN(CCN(C)C)C(=O)c2ccc(C)cc2)C1 (stereo not given),-3%
COc1cccc(C2=NOC(C(=O)Nc3cccc(C(C)=O)c3)C2)c1 (stereo not given),-7%
